Screening results: PubChem BioAssay, Broad Institute
Ecoli rRNA inh = reduced GFP signal of wild-type E. coli, primary screen, bacterial rRNA inhibitor project, GFP/RFP fluorescence, OD600, single point. E. coli WT GFP vs humanized-ribosome RFP mutants, 24 h; stronger effect = lower value; DMSO median 0, no signal -100. GFP signal change (wild-type ribosome), % (test concentration not listed). actives 1.6% (n = 350,000). AID 720706, 2013;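 active means significant combined selectivity score with lowered wild-type GFP, culture density cut under 30%, mutant RFP and density less affected; inactive means any of these conditions unmet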; further: one replicate is shown; some compounds called inactive have numbers as strong as hits
Ecoli rRNA inh OD600 = also measured in Ecoli rRNA inh; calls as there; OD600 change, %; measured here: OD600 growth;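 optical density of the mix in the first replicate; 0 = DMSO median and -100 = no signal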
Ecoli rRNA inh RFP = also measured in Ecoli rRNA inh; calls as there; RFP signal change, %; measured here: RFP humanized mutant strains;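 first replicate; 0 = DMSO median and -100 = no signal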
Active calls of the source: *. An excerpt (hit frequency here may not be typical).

canonical_smiles	Ecoli rRNA inh	Ecoli rRNA inh OD600	Ecoli rRNA inh RFP
C[C@@H]1CCCCO[C@H](CN(C)Cc2ccc(C(=O)Nc3ccccc3N)cc2)[C@@H](C)CN([C@H](C)CO)C(=O)c2cc(N(C)C)ccc2O1	-1	9	-0.3
CCCN1C[C@H](C)[C@H](OC)CN(C)C(=O)c2cc(NC(=O)COC)ccc2OC[C@@H]1C	1	-1	-0.4
C[C@H]1CN(C)C(=O)c2cc(N)ccc2O[C@H]1CN(C)C	1	2	-0.7
CCCNC(=O)Nc1ccc2c(c1)C(=O)N(C)C[C@H](OC)[C@H](C)CN(CCC(F)(F)F)[C@@H](C)CO2	-1	0	1.4
CC=Cc1ccc2n(c1=O)C[C@H]1[C@H](CO)[C@@H](C(=O)NC3CCCCC3)N(CCC)[C@@H]21 (mixture of isomers)	0	-3	-2.5
C[C@@H]1CN([C@@H](C)CO)C(=O)c2cc(C#CCN(C)C)cnc2O[C@@H]1CN(C)C(=O)c1cnccn1	3	12	-0.2
CC1C=NC(S(=O)(=O)N2CC[C@@H]3[C@H](CO)N(C)c4ccc(-c5ccc(F)cc5)cc4[C@@H]32)=N1 (some centres not stated)	-6	-13	2.4
C[C@@H]1CN([C@@H](C)CO)C(=O)CCCn2cc(nn2)CO[C@@H]1CN(C)C(=O)OCc1ccccc1	-1	-3	-0.3
N#C[C@H]1[C@@H](c2ccc(C#CC3CCCC3)cc2)[C@@H](CO)N1C(=O)c1cccc(F)c1	4	9	-0.1
CCCN1C[C@@H](C)[C@H](OC)CN(C)C(=O)c2ccc(NC(=O)c3ccc(F)cc3)cc2OC[C@@H]1C	-3	-9	2.7
CC(=O)N(C)C[C@H]1Oc2ccc(N)cc2CC(=O)N(C)C[C@@H]1C	0	-4	-0.4
COc1ccc(S(=O)(=O)N(C)C[C@@H]2Oc3ncc(-c4cccc(OC)c4)cc3C(=O)N([C@H](C)CO)C[C@@H]2C)cc1	-3	-14	5.8
CO[C@H]1CN(C)C(=O)c2ccc(NC(=O)NC(C)C)cc2OC[C@H](C)N(S(C)(=O)=O)C[C@@H]1C	2	-2	1.0
CO[C@@H]1CN(C)C(=O)c2ccc(NC(C)=O)cc2OC[C@@H](C)N(CC2CCCCC2)C[C@H]1C	-1	-5	-0.1
CCCN1C[C@@H](C)[C@H](OC)CN(C)C(=O)c2cc(NC(=O)COC)ccc2OC[C@@H]1C	-1	-3	-2.0
CS(=O)(=O)N1CCCCN2[C@H](C1)[C@H](c1ccc(-c3cccc(C#N)c3)cc1)[C@@H]2CO	3	5	-3.3
CO[C@H]1CN(C)C(=O)c2ccc(NC(=O)c3ccccc3)cc2OC[C@@H](C)N(C(=O)C2CC2)C[C@H]1C	-4	4	0.2
CC(C)NC(=O)Nc1ccc2c(c1)CC(=O)N(C)C[C@@H](C)[C@H](CN(C)C(=O)NC(C)C)O2	-2	0	-2.3
C[C@@H]1CN([C@@H](C)CO)C(=O)c2cc(NS(=O)(=O)c3ccc(Cl)cc3)ccc2O[C@@H]1CN(C)C(=O)Nc1ccc(C(F)(F)F)cc1	2	3	-3.6
COc1ccccc1S(=O)(=O)N[C@@H]1CC[C@H](CCn2cc(C3CCCC3)nn2)O[C@H]1CO	1	4	-3.3
Cc1noc(C)c1S(=O)(=O)N(C)C[C@H]1Oc2ccc(NC(=O)Nc3ccc4c(c3)OCO4)cc2C(=O)N([C@H](C)CO)C[C@@H]1C	-3	-10	2.6
CO[C@H]1CN(C)C(=O)c2ccc(NC(=O)Nc3cccc(F)c3)cc2OC[C@H](C)N(C(=O)C2CC2)C[C@H]1C	0	-12	5.0
C[C@H](CO)N1C[C@H](C)[C@H](CN(C)S(=O)(=O)c2ccc3ccccc3c2)OCc2cn(nn2)CCCC1=O	-3	-9	0.6
C[C@@H]1CN(C)C(=O)c2ccccc2O[C@@H]1CN(C)C(=O)OC(C)(C)C	-3	-5	-0.9
CO[C@H]1CN(C)C(=O)c2cc(NC(=O)Nc3cccc(F)c3)ccc2OC[C@@H](C)N(C(=O)C2CC2)C[C@H]1C	-14	-11	13
CC(C)[C@@H]1CCc2cnnn2COC[C@@H](Cc2ccccc2)NC1=O	7	3	1.8
COc1ccc2c3c(n(C)c2c1)[C@H](CO)NCC31CCN(Cc2ccc(F)cc2)CC1	-1	2	4.8
COc1cccc(S(=O)(=O)N2CC[C@@H]3[C@H](CO)N(C)c4ccc(C5=CCCCC5)cc4[C@@H]32)c1	7	9	0.3
Cc1noc(C)c1NC(=O)Nc1ccc2c(c1)C(=O)N([C@@H](C)CO)C[C@@H](C)[C@H](CN(C)C(=O)Nc1ccccc1)O2	1	-8	-0.8
COCC(=O)N1CC[C@@H]2[C@@H](CO)N(C)c3ccc(-c4cccc(OC)c4)cc3[C@@H]21	7	5	-1.3
CCC(=O)N1CC2(CN(S(C)(=O)=O)C2)c2c(n(C)c3cc(OC)ccc23)[C@H]1CO	-1	3	-4.2
CC(C)NC(=O)N(C)C[C@@H]1Oc2ccc(NC(=O)Cn3cnnn3)cc2C(=O)N([C@H](C)CO)C[C@H]1C	5	2	-1.9
Cc1noc(C)c1NC(=O)Nc1ccc2c(c1)C(=O)N([C@@H](C)CO)C[C@H](C)[C@@H](CN(C)C(=O)Nc1ccccc1)O2	5	13	0.6
CC(=O)N(CC(C)C)C[C@@H]1N[C@H](CO)[C@H]1c1ccc(-c2cncnc2)cc1	1	2	-2.1
COc1ccc2c3c(n(C)c2c1)[C@@H](CO)N(Cc1ccccc1Cl)CC31CCN(C(=O)CC2CC2)CC1	-2	-6	-3.4
C[C@H](CO)N1C[C@H](C)[C@H](CN(C)Cc2ccc(C(=O)Nc3ccccc3N)cc2)Oc2ccc(NC(=O)Nc3ccccc3)cc2CC1=O	-24	-22	1.6
C/C=C/c1ccc([C@@H]2[C@@H](CN(C)C(=O)CC3CC3)N(C(=O)C3CC3)[C@H]2CO)cc1	-4	-7	0.3
C[C@H](CO)N1C[C@H](C)[C@H](CN(C)Cc2ccccc2)OCCCC[C@H](C)Oc2ccc(NS(C)(=O)=O)cc2C1=O	-2	-1	0.3
CCCN1[C@H](C(=O)N2CCCCC2)[C@@H](CO)[C@@H]2Cn3c(ccc(-c4ccccc4OC)c3=O)[C@@H]21	-2	-1	1.5
CN1C[C@@H]2[C@H](c3ccccc31)[C@H](CO)N2Cc1ccccc1	2	-5	-4.5
COc1ccc(-c2cnc3c(c2)C(=O)N([C@@H](C)CO)C[C@H](C)[C@@H](CN(C)C(=O)Cc2cccnc2)O3)cc1	5	-2	-0.8
COC(=O)[C@H]1[C@H](CO)[C@H]2Cn3c(ccc(/C=C/c4ccccc4)c3=O)[C@H]2N1CC1CCCCC1	-3	-23	22
CO[C@@H]1CN(C)C(=O)c2ccc(NC(=O)c3cnccn3)cc2OC[C@H](C)N(C(C)=O)C[C@@H]1C	2	0	2.5
CC(C)NC(=O)N(C)C[C@H]1Oc2ccccc2C(=O)N(C)C[C@H]1C	1	-1	0.2
C[C@H](CO)N1C[C@H](C)[C@H](CN(C)S(C)(=O)=O)Oc2ncc(C3=CCCCC3)cc2C1=O	7	9	-1.5

Look-ups from above:
Under Ecoli rRNA inh, CC(C)NC(=O)N(C)C[C@H]1Oc2ccccc2C(=O)N(C)C[C@H]1C is listed with 1
Under Ecoli rRNA inh, C[C@H](CO)N1C[C@H](C)[C@H](CN(C)S(C)(=O)=O)Oc2ncc(C3=CCCCC3)cc2C1=O is listed with 7

Next section.
canonical_smiles	Ecoli rRNA inh	Ecoli rRNA inh OD600	Ecoli rRNA inh RFP
CCCNC(=O)C[C@@H]1CC[C@H]2[C@H](COc3ccc(NC(=O)c4ccccc4)cc3C(=O)N2C)O1	5	3	-1.4
C[C@H](CO)N1C[C@H](C)[C@@H](CN(C)Cc2ccc(C(F)(F)F)cc2)Oc2c(NS(C)(=O)=O)cccc2C1=O	4	2	1.2
COc1ccc(C#Cc2cnc3c(c2)C(=O)N([C@@H](C)CO)C[C@H](C)[C@H](CN(C)C(=O)Nc2cccc(OC)c2)O3)cc1	-1	4	3.2
C[C@H](CO)N1C[C@H](C)[C@@H](CN(C)S(C)(=O)=O)Oc2cc(C3=CCCC3)ccc2S1(=O)=O	-1	4	1.7
C[C@@H]1CN([C@@H](C)CO)S(=O)(=O)c2ccc(C#CC3CC3)cc2O[C@@H]1CN(C)C(=O)C1CCCCC1	-7	-20	6.0
C[C@@H]1CN([C@@H](C)CO)S(=O)(=O)c2ccc(-c3ccccc3)cc2O[C@@H]1CN(C)C(=O)c1ccccc1F	-2	-19	2.5
C[C@@H]1CN([C@@H](C)CO)C(=O)c2cc(NC(=O)CCCN(C)C)ccc2O[C@H]1CN(C)Cc1ccncc1	3	19	2.3
COCC(=O)N1CC2(CN(Cc3ccc(Cl)cc3)C2)c2c([nH]c3cc(OC)ccc23)[C@H]1CO	-5	-14	6.6
C[C@@H]1CN(C)C(=O)c2cccc(N)c2O[C@H]1CN(C)C(=O)OC(C)(C)C	1	0	0.9
CO[C@H]1CN(C)C(=O)c2ccc(NC(=O)Nc3cccc(F)c3)cc2OC[C@@H](C)NC[C@@H]1C	-1	-4	4.3
CO[C@@H]1CN(C)C(=O)c2ccc(NC(=O)CC(F)(F)F)cc2OC[C@H](C)N(C(=O)C2CCCCC2)C[C@H]1C	0	-3	6.9
CC(=O)Nc1cccc2c1O[C@@H](CN(C)C(=O)OC(C)(C)C)[C@@H](C)CN(C)C2=O	-1	7	-0.3
CCS(=O)(=O)N1CC2(CN(C(=O)NC(C)C)[C@H](CO)c3c2c2ccc(OC)cc2n3C)C1	-1	-1	1.6
C[C@@H]1CN([C@@H](C)CO)C(=O)Cc2cc(NC(=O)Nc3ccc(F)cc3)ccc2O[C@@H]1CN(C)S(=O)(=O)c1cn(C)cn1	2	10	0.1
C/C=C/c1ccc([C@H]2[C@@H](CN(C)C(=O)C3CC3)N(C(=O)CC)[C@H]2CO)cc1	2	8	-2.0

The last 5 entries of the section above are carried over, then new ones follow:
canonical_smiles	Ecoli rRNA inh	Ecoli rRNA inh OD600	Ecoli rRNA inh RFP
CO[C@@H]1CN(C)C(=O)c2ccc(NC(=O)CC(F)(F)F)cc2OC[C@H](C)N(C(=O)C2CCCCC2)C[C@H]1C	0	-3	6.9
CC(=O)Nc1cccc2c1O[C@@H](CN(C)C(=O)OC(C)(C)C)[C@@H](C)CN(C)C2=O	-1	7	-0.3
CCS(=O)(=O)N1CC2(CN(C(=O)NC(C)C)[C@H](CO)c3c2c2ccc(OC)cc2n3C)C1	-1	-1	1.6
C[C@@H]1CN([C@@H](C)CO)C(=O)Cc2cc(NC(=O)Nc3ccc(F)cc3)ccc2O[C@@H]1CN(C)S(=O)(=O)c1cn(C)cn1	2	10	0.1
C/C=C/c1ccc([C@H]2[C@@H](CN(C)C(=O)C3CC3)N(C(=O)CC)[C@H]2CO)cc1	2	8	-2.0
CC(=O)N(C)C[C@@H]1Oc2ccc(NC(=O)NC(C)C)cc2C(=O)N(C)C[C@H]1C	2	0	-0.6
CNC[C@H]1Oc2ccc(NS(=O)(=O)c3c(C)noc3C)cc2CC(=O)N([C@H](C)CO)C[C@H]1C	3	3	0.4
CC(C)[C@H]1CC=CC[C@@H](C)Oc2ccccc2C(=O)N(C)[C@H](Cc2ccccc2)C(=O)N1 (mixture of isomers)	-25	-46	-8.4
C/C=C/c1ccc2c(c1)O[C@@H](CN(C)C(=O)C1CCC1)[C@@H](C)CN([C@H](C)CO)S2(=O)=O	-3	2	-2.4
C[C@@H]1CN([C@@H](C)CO)C(=O)c2cccc(NC(=O)Nc3ccc(F)cc3)c2O[C@@H]1CN(C)S(=O)(=O)c1cn(C)cn1	3	3	-1.0
O=C1N[C@H](c2ccccc2)COCc2cnnn2CC[C@@H]1Cc1ccc(-c2ccccc2)cc1	-6	-14	1.6
O=C1[C@@H](Cc2ccc(F)cc2)CCn2cc(nn2)COC[C@H]2CCCN12	3	2	1.8
COc1cccc(NC(=O)N2[C@H](CO)[C@H](c3ccccc3)[C@H]2CNC(C)C)c1	4	7	-0.2
CCCNC(=O)N1C[C@H](C)[C@H](OC)CN(C)C(=O)c2cc(NC(=O)C3CCC3)ccc2OC[C@@H]1C	2	1	-3.6
CO[C@H]1CN(C)C(=O)c2cc(NS(=O)(=O)c3cn(C)cn3)ccc2OC[C@H](C)N(C)C[C@@H]1C	2	5	-1.5
C[C@@H]1CCCCO[C@H](CN(C)C)[C@H](C)CN([C@@H](C)CO)C(=O)c2cc(NC(=O)Nc3ccc4c(c3)OCO4)ccc2O1	3	9	1.1
C[C@H](CO)N1C[C@H](C)[C@H](CN(C)Cc2cccnc2)Oc2cc(-c3cccnc3)ccc2S1(=O)=O	-2	-3	-3.9
COc1ccccc1CN1CC[C@@H]2[C@H]1c1cc(-c3cccc(C(=O)N(C)C)c3)ccc1N[C@@H]2CO	6	4	5.4
O=C1CN(Cc2ccccc2)C[C@@H]2[C@H](c3ccc(-c4ccccc4)cc3)[C@H](CO)N12	5	4	8.9
CNC[C@@H]1Oc2ncc(C3=CCCC3)cc2C(=O)N([C@@H](C)CO)C[C@@H]1C	5	-1	-3.1
CC(C)NC(=O)N[C@H]1CC[C@H](CC(=O)NCCCN(C)C)O[C@@H]1CO	0	0	-1.3
COc1ccc2c3c(n(C)c2c1)[C@@H](CO)N(Cc1ccc(Cl)cc1)CC31CN(C(=O)NC(C)C)C1	-6	-13	1.7
CO[C@@H]1CN(C)C(=O)c2ccc(NS(=O)(=O)c3ccccc3)cc2OC[C@H](C)N(Cc2ccccn2)C[C@H]1C	0	-8	1.8
